Source: PubChem BioAssay (National Center for Advancing Translational Sciences (NCATS))
VACV mCherry inh: inhibitors of vaccinia virus infection (mCherry reporter signal); AID 720579; Vaccinia virus mCherry reporter infection, fluorescence; about a quarter of the inactives have no number; 310,000 tested, 0.63% active; Potency, µM (top dose mostly 36.5 µM), for inactives: at the top dose activity change, negative = inhibition, most hits filed as inhibitors; active = well fitted inhibition curve with a large enough effect; inconclusive = small, poorly fitted or top-dose-only effect; inactive = no such curve, though single readings can be large or run the other way; tested in A549 cells; further: nearly all actives have a fitted effect of over 35% in size; inactives centre near -10
Vaccinia Venus: vaccinia inhibition (Venus reporter); Vaccinia virus Venus reporter expression, fluorescence; Potency, µM (titrated, usually from 36.5 µM), for the others: at the top dose activity change, negative = inhibition, actives largely listed as inhibitors; 330,000 tested, 0.46% active; AID 720580; active means well fitted inhibition curve with a large enough effect; inconclusive means small, poorly fitted or top-dose-only effect; inactive means no such curve, though single readings can be large or run the other way; tested in A549 cells; further: nearly all actives have a fitted effect of over 30% in size; inactives centre near -10
* hit, by the source's call; i = inactive; ? = inconclusive; nt = not tested or not shown; & = joins results of further samples; [ ] = dose if it differs, or a comment. On the % scale 0 is the no-effect control and ±100 the full control effect; potency means the concentration at half of the fitted maximal effect.

structure | VACV mCherry inh | Vaccinia Venus
Cc1cccc(NC(=O)COC(=O)c2ccccc2SCC(=O)N2CCCC2)c1 | -18.0% | -7.5%
O=C(CC1C(=O)NCCN1Cc1ccccc1C(F)(F)F)NC1CCCC1 (centres undefined) | -5.3% | -2.0%
CCCCCCCCN1C(=O)[C@H](CC(=O)NCc2ccccc2)C[C@@]2(C(=O)OCC)CCC=C12 | ? | -20.0%
Cc1cccc(NC(=S)NNC(=O)c2ccc(O)cc2O)c1C | ? | -12.4%
N#Cc1cccc(C(c2nnnn2C2CCCC2)N2CCCCCC2)c1 (centres undefined) | -10.1% | -0.7%
CCN(CC)C(=O)c1cccc(-c2csc(C(O)c3ccco3)n2)c1 (centres undefined) | 4.8% | -0.2%
COc1cc(-c2cnc3c(NC(C)=O)cc(-c4cccc(C(=O)NCCO)c4)cn23)cc(OC)c1OC | -0.9% | 6.0%
CCOC(=O)C1=C(COC(=O)/C=C/c2ccccc2Cl)NC(=O)NC1C (centres undefined) | i | -16.7%
CC(C)(C)n1nnnc1C(c1ccccc1)N1CCN(c2ncccc2C(F)(F)F)CC1 (centres undefined) | -10.9% | 9.5%&-12.3%
O=C(c1cccc(N2C(=O)c3ccccc3C2=O)c1)N1CCCC(C(F)(F)F)C1 (centres undefined) | -12.2% | -1.5%
O=C(OC(C(=O)NCc1ccc(F)cc1)c1ccccc1)c1ccco1 (centres undefined) | -9.7% | -6.7%
COc1ccccc1C1CC(c2ccc(NS(C)(=O)=O)cc2)=NN1C(=O)c1ccccc1 (centres undefined) | 0.0% | -20.2%
C/C(=N\NC(=O)C1COc2ccccc2O1)c1ccc(Cl)s1 (centres undefined) | i | -17.9%
O=C(C1CCN(S(=O)(=O)N2CCCC2)CC1)N1CCCCC1 | -10.7% | -10.4%
COc1ccc2nc3cc([N+](=O)[O-])ccc3c(NNc3ccc([N+](=O)[O-])cc3)c2c1 | -21.1% | -4.3%

Remaining list, next part
structure | VACV mCherry inh | Vaccinia Venus
CC(C)=C1C2CCC1C1C(=O)N(CCc3ccccc3)C(=O)C21 (centres undefined) | i | 0.1%
Cc1cc(Oc2ccc(C(F)(F)F)cc2[N+](=O)[O-])c2c3c(c(=O)oc2c1)CCCC3 | -9.7% | -16.5%
O=C(c1cccc([N+](=O)[O-])c1)N1CCCC(C(=O)N2CCCCCC2)C1 (centres undefined) | -1.8% | -16.9%
CCC(C)N(C(=O)Cn1nnc2ccccc21)C(C(=O)Nc1ccc(F)cc1)c1cccc(OC)c1 (centres undefined) | -21.3% | -17.3%
CC1C=CCCC12C(=O)NC(=O)NC2=O (centres undefined) | i | -5.4%
CCN(c1ccc(NC(=O)COC(=O)/C=C/c2ccco2)cc1)C(C)C | i | 1.0%
CCCCNC(=O)N1CCN(c2ccccc2OC)CC1 | i | -12.5%
CC1(C)CC(=O)C(C=Nc2ccc(C(=O)c3ccccc3)cc2N=CC2=C(O)CC(C)(C)CC2=O)=C(O)C1 | -8.3% | -8.9%
FC(F)Oc1ccc(NC(=S)NCc2nc3ccccc3[nH]2)cc1 | i | 0.8%
COc1cc(CC2(CCc3ccncc3)C(=O)NC(=O)NC2=O)cc(OC)c1OC | i | 1.1%
O=C(/C=C1\NC2(CCCC2)Cc2ccccc21)C(=O)N/N=C/c1ccc(O)c(O)c1 | ? | -22.5%
COc1cc(NC(=O)CN2c3cccc4cccc(c34)S2(=O)=O)cc(OC)c1OC | ? | ?
COc1cc(S(=O)(=O)N2CCCCC2)ccc1NC(=O)c1ccncc1 | i | 11.2%
CCS(=O)(=O)Nc1cccc(C2=NN(C(C)=O)C(c3cccs3)C2)c1 (centres undefined) | i | -3.6%
Cc1cc(Cl)cc(C)c1OCCNCc1ccccc1 | -5.7% | -13.1%

More records:
structure | VACV mCherry inh | Vaccinia Venus
COc1ccccc1NC(=O)CNC(=O)Cn1cnc2sc(C)c(C)c2c1=O | -6.9%[7.34 µM] | -7.6%[7.34 µM]
CC(C)(C)NC(=O)CSc1nc(-c2ccc(F)cc2)cc(C(F)(F)F)n1 | -10.2% | 2.7%
Clc1nc(NCc2ccco2)c2ccccc2n1 | ? | ?
Cc1ccc(N2CC(NC(=O)/C=C\c3ccc4c(c3)OCO4)CC2=O)cc1 (centres undefined) | -6.4%[7.34 µM] | -8.4%[7.34 µM]
O=C(Nc1ccc(Br)cc1)C1CCN(C(=O)c2ccco2)CC1 | i | -20.3%
CCn1cc(CN2CCC(n3nccc3NC(=O)Cc3ccccc3)CC2)c(C)n1 | i | -9.9%
COc1ccc(C(C(=O)NC(C)(C)C)N(C(=O)Cn2nnc3ccccc32)c2cccc(C(C)=O)c2)cc1O (centres undefined) | -8.4% | -10.8%
COc1cc(C(=O)OCCN2CCCCC2)ccc1O | ? | -12.6%
CCOC(=O)c1cc(C#N)c(C)nc1N(CC)CC | i[7.34 µM] | -5.8%[7.34 µM]
CC(=O)Nc1cccc(C(=O)NNC(=O)c2ccc(NS(=O)(=O)c3cccs3)cc2)c1 | i | -4.8%
CCn1c(COc2ccc3c(c2)OCO3)nnc1SCC(=O)O | nt | -10.0%
CN(C)C(=O)c1cc(C(=O)c2ccc(F)cc2C(F)(F)F)c[nH]1 | i | -9.2%
CCOc1ccc2nc(NC(=O)CSc3nnnn3C3CCCCC3)sc2c1 | -8.1% | -17.4%
COc1ccc(-n2nc(C(=O)NCC(=O)N3CCC4(CC3)OCCO4)c3ccccc3c2=O)c(OC)c1 | -28.4% | -9.9%
Nn1c(Cc2cccc3ccccc23)nnc1SCc1c(Cl)cccc1Cl | i | -27.4%

(list continues)
structure | VACV mCherry inh | Vaccinia Venus
Cc1ccccc1-n1nc(C)c2c(C(=O)NN)cc(-c3ccncc3)nc21 | 5.2% | -9.7%
CCOC(=O)N1CCN(Cc2ccccc2F)CC1 | i | -7.5%
Cn1c(SCC(=O)NCC2CCCO2)ncc(C(=O)Nc2ccc(Cl)cc2)c1=O (centres undefined) | -12.1% | -0.4%
COc1cccc(-c2csc(N3CCN(C(=O)Nc4ccc(Cl)cc4)CC3)n2)c1 | ? | ?
Cc1cc(C)c(S(=O)(=O)N2CCC(C(N)=O)CC2)cc1C | -18.1% | -11.9%
CC(=O)Nc1ccc(S(=O)(=O)O)c(OC(C)=O)c1 | -15.7% | -8.8%
CN(C)CCCN(C(=O)c1cc2cc([N+](=O)[O-])ccc2s1)c1nc2cc3c(cc2s1)OCCO3 | 14.1µM* | 12.6µM*
COc1ccc(OCCCC(=O)Nc2cccc(SC)c2)cc1 | -14.6% | -6.2%
CCOC(=O)C1(Cc2cccc(Cl)c2)CCCN(C(=O)C2CC2)C1 (centres undefined) | -3.5% | -14.7%
COc1cc(OC)cc(C(=O)NCC(=O)N2CC=C(c3ccccc3)CC2)c1 | ? | ?
COc1ccc(C)cc1N(C)C(=O)CCc1nc(-c2ccccc2F)no1 | -9.9% | -11.8%
COc1ccccc1/C=C/CN1CCCC(CCC(=O)NCc2ccc(F)c(F)c2)C1 (centres undefined) | -14.7% | -19.4%
C=CCNC(=O)COc1ccc(S(=O)(=O)N2CCCC2)cc1 | -14.9% | -8.5%
Cn1c2c(c(=O)n(C)c1=O)C(c1cc(Br)ccc1F)CC(=O)N2 (centres undefined) | 18.4% | 6.9%
CC(=O)Nc1ccc(NC(=O)CNS(=O)(=O)c2ccc(C)cc2)cc1 | -13.0% | 0.2%

The list goes on:
structure | VACV mCherry inh | Vaccinia Venus
CCN(CC)c1ccc(NC(=O)COc2ccccc2C#N)cc1S(=O)(=O)Nc1ccccc1OC | i | -0.1%
O=C(NC(=S)Nc1ncccn1)c1ccccc1Cl | i | -2.7%
CCc1cc2c(SCC(=O)N(C)C3CCS(=O)(=O)C3)ncnc2s1 (centres undefined) | i | -13.2%
O=c1c2ccccc2nc2n1CCc1ccc(Br)cc1-2 | 6.2% | -10.6%
CC(Cc1cccs1)NC(=O)c1cccc(Cl)c1 (centres undefined) | i | -7.5%
O=C(Oc1ccc(OC(=O)N2CCCCC2)cc1)c1ccccc1 | i | 2.0%
COc1ccc(N2CCN(C(=O)c3cc(-c4cccs4)nc4ccccc34)CC2)cc1 | -21.4% | -15.3%
O=C(COC(=O)C1(c2cccc(F)c2)CCCC1)NCc1ccc2c(c1)OCO2 | -11.3% | -15.3%
O=C(c1nc2ccccc2s1)N1CCN(c2ccccn2)CC1 | -21.3% | -16.4%
CC(C)CC(=O)NNC(=S)Nc1ccc(S(N)(=O)=O)cc1 | 1.1% | 3.8%
CCOC(=O)c1ccc(NC(=O)CN(c2ccc(C)cc2)S(=O)(=O)c2ccc(OC)cc2)cc1 | -6.6% | -4.7%
C[n+]1ccc(C(=O)N/N=C/c2ccco2)cc1 | -11.5% | -1.5%
COCCNC(=O)C(c1ccc(C)o1)N(Cc1ccc(F)cc1)C(=O)Cn1nnc2ccccc21 (centres undefined) | -4.4% | -13.3%
CC(=O)NN1C(=O)/C(=C2/Sc3ccc(Cl)cc3N2C)SC1=S | i | -16.3%
Cc1ccc(NCc2nnc(SCC(N)=O)o2)c(C)c1 | -2.5% | -3.8%

(continued)
structure | VACV mCherry inh | Vaccinia Venus
CCOC(=O)C(C)Nc1ncnc2onc(C)c12 (centres undefined) | -8.6% | 0.9%
CSCC[C@H](NS(=O)(=O)c1ccc(C)cc1)C(=O)N1CCC(C(=O)N[C@@H](C)C(=O)O)CC1 | -5.1% | 6.7%
CC(=O)c1ccc(N(C(=O)c2csnn2)C(C(=O)NC2CCCC2)c2ccccc2)cc1 (centres undefined) | -17.7% | -6.9%
Cc1ccc(-c2cc(-c3nnc(SCC(=O)N(C)CCC#N)n3N)c3ccccc3n2)cc1 | ? | -20.8%
COc1ccc(Cl)cc1N(CC(=O)N1CCCCC1)S(C)(=O)=O | -25.0% | -2.0%
Cc1ccc2sc(N(Cc3cccnc3)C(=O)CCS(=O)(=O)c3ccccc3)nc2c1C | 6.7% | 9.8%
COC(=O)c1oc2c(c1C)C1(CCC2)SCCS1 | nt | -6.8%
CSc1ccc(Cn2c(C)c(C(=O)NCc3ccc(Cl)c(Cl)c3)sc2=O)cc1 | -10.1% | -24.6%
N#CCCn1cc(CNCc2ccccc2)c(-c2cccc([N+](=O)[O-])c2)n1 | ? | -5.7%
CCNC(=O)C1(C)CCCN1Cc1cccc(C(F)(F)F)c1 (centres undefined) | i | -5.5%
CN1CCCN(C(=O)c2ccc(Cl)cc2)CC1 | 2.6% | 4.3%
Cc1cc(C)c(C#N)c(OCC2CCCO2)n1 (centres undefined) | 5.3% | 5.2%
Cc1ccc(-n2c(=O)c3ccc(C(=O)NCc4ccccc4Cl)cc3n(Cc3cccc(F)c3)c2=O)cc1 | -9.6% | -11.7%
CC1(C(=O)NCc2cccc(C(F)(F)F)c2)CCN1CCc1ccccc1 (centres undefined) | i | 1.8%
Cc1c(C(=O)Nc2ccc(F)cc2)oc2ccc(S(=O)(=O)N3CCCC3)cc12 | -10.5% | -3.2%

The list goes on.
structure | VACV mCherry inh | Vaccinia Venus
COc1ccc([C@H]2CC(=O)C=C(c3cccc(CO)c3)C2)cc1OC | -5.6% | -9.7%
Cc1cccnc1NC(=O)c1cccc(NC(=O)CC2SC(N3CCCCC3)=NC2=O)c1 (centres undefined) | -16.6% | -14.5%
CC(C)(C)NC(=O)N1CCCN(c2ccc(C(F)(F)F)cn2)CC1 | ? | -25.1%
CCn1c(=N)n(CC(=O)C(C)(C)C)c2ccccc21 | -10.2% | -11.3%
CN1CCCC(OC(=O)c2ccc(Cl)cc2)C1 (centres undefined) | ? | -8.6%
O=C(CSc1nc2ccccc2c(=O)n1CCCN1CCOCC1)Nc1ccccc1OC(F)F | i | -15.4%
CC1(C(=O)Nc2ccccc2Br)CCN1C(=O)CC1CC1 (centres undefined) | i | -9.4%
O=C(c1cc([N+](=O)[O-])ccc1Cl)N1CCN(c2ccccc2)CC1 | -2.5% | 1.1%
O=C(Cn1c(=O)n(Cc2ccc3c(c2)OCO3)c(=O)c2ccccc21)N1CCCc2ccccc21 | nt | -20.0%
CCCC(=O)Nc1ccc(C(=O)N/N=C2\CC(=O)CC(C)(C)C2)cc1 | -19.9% | -10.5%
COc1cccc(/C=C2\Oc3cc(OC(=O)N4CCOCC4)ccc3C2=O)c1 | -0.8% | 6.5%
O=C1COc2ccc(-c3csc(NCCc4ccccc4)n3)cc2N1 | -20.0% | -13.1%
COc1cc(/C=N/NC(=O)CCc2c(C)n[nH]c2C)ccc1O | i | -19.7%
CN1/C(=C\C(=O)c2cccs2)Sc2ccccc21 | nt | -29.0%
CN1C(=O)c2ccccc2NC(=O)C1Cc1ccccc1 (centres undefined) | 19.3% | -3.6%

Exported with two lines to a compound: part of the list above
Value order – VACV mCherry inh | Vaccinia Venus
- O=C(Nc1ccc(Br)cc1)C1CCN(C(=O)c2ccco2)CC1
  i | -20.3%
- O=C(CSc1nc2ccccc2c(=O)n1CCCN1CCOCC1)Nc1ccccc1OC(F)F
  i | -15.4%

New compounds follow.
structure | VACV mCherry inh | Vaccinia Venus
CC(/C=C/c1ccccc1)NC(N)=O (centres undefined) | -16.7% | -6.5%
CCC(=O)NCCn1ccc2ccccc21 | -21.2% | 15.7%
C(=N\Nc1ccccn1)/c1ccc(N2CCOCC2)cc1 | -3.6% | -16.5%
CCN1CCC(N[C@H]2C[C@@H](C(=O)NC)N(Cc3cccc4ccccc34)C2)CC1 | -7.2% | -1.8%
CC(C)CCNC(=O)CN1N=C(c2ccc(Cl)cc2)CCC1=O | ? | -1.6%&-3.8%
Cc1ccccc1-c1nnc(SCC(=O)Nc2cccnc2Cl)o1 | -16.0% | -12.0%
CC(=O)N1N=C2C3CCN(CC3)C2C1c1ccc(C)cc1 (centres undefined) | i | -0.2%

This is a random part of the collection; 0.87% or so of the library scored in one or more.
